Hsc70 = Hsc70 inhibitors, probe displacement, primary screen, biochemical, fluorescence polarization (AID 568) | Hsc70 fluorescence polarization, probe displacement; higher % means a stronger effect; strong numbers were not always called active | displacement, % at 20 µM, or IC50 in µM where a hit was titrated | 83,000 tested, under 10 active;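 active = displacement above 50% without optical interference and an IC50 on retest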;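 also: ATPase domain with a fluorescein-tagged ATP probe; 0% = vehicle and 100% = excess ADP; read after one hour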
MT1-MMP promoter = MT1-MMP gene expression reporter suppression – cell-based, luciferase reporter, luminescence (AID 618) | MT1-MMP promoter luciferase reporter cells, luminescence | calls from a first round at 10 µM; hits with a dose series show EC50 in µM | hit rate 0.62% among 87,000;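 active = over half of the reporter light lost at 10 µM or EC50 under 50 µM; inactive = the rest and hits that failed the dose series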;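 also: actives suppress MT1-MMP promoter-driven transcription so potencies describe inhibitors; HT1080 fibrosarcoma cells; overnight exposure; toxic or luciferase-blocking compounds were not removed from the actives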
WNV protease inh = inhibitors of West Nile virus NS2B-NS3 protease | z-score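 (tested at a level between 10 and 100 µM)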 | WNV NS2B-NS3 protease, fluorogenic substrate Ex360/Em465; hits give low values | hit rate 0.18% among 65,000 | AID 577;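 active = z-score at -3 or under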;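 also: score is relative to mean and spread of the compound wells of a plate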
Target sequence (P06935 1371-1501 limits assumed): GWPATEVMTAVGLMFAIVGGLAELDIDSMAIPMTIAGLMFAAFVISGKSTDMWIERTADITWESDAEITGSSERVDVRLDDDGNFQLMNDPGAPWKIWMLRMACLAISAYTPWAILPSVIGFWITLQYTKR
Target sequence (P06935 1502-1679 limits assumed): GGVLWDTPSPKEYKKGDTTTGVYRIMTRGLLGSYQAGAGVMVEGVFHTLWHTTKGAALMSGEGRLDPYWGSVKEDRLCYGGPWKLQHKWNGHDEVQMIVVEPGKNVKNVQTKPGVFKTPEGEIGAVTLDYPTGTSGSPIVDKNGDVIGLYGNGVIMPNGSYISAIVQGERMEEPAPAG
Numbers without * were called inactive; i = inactive; / = no result given; + = active, no number. This is a subset, so the mix of outcomes need not match the whole.

Compound | Hsc70 | MT1-MMP promoter | WNV protease inh
O=S(=O)(O)c1nnc2sc3ccccc3n12 | -5.5% | i | -0.3
Cc1ccc(NC2=CC(=O)C(=O)c3ccccc32)cc1 | 0.1% | i | /
C=CCOc1ccc(/C=C/C(C)=N\O)cc1 | -6.7% | i | -0.14
CCOC(=O)C1C(=O)N(C(=O)c2cncc(Br)c2)CC1c1ccccc1 (stereo unspecified) | 1.6% | i | -0.00811
N=c1c2c(n(Cc3ccc(Cl)cc3)c3c1CCC3)CCC2 | 1.0% | i | 0.22
COC(=O)c1ccc(N(CC(=O)NC2CCCC2)C(=O)CNC(=O)c2ccco2)cc1 | -0.2% | i | 0.75
CC(Nc1nc(N2CCCC2)nc2ccccc12)c1ccccc1 (stereo unspecified) | -1.3% | i | -0.62
O=c1c2ccccc2nc(-c2ccco2)n1CCCn1ccnc1 | 4.1% | i | -0.44
C=CCn1c(O)c(C(CC)=Nc2ccccc2NC(=O)CC)c(=O)[nH]c1=O | 0.0% | i | 0.00662
CCCS(=O)(=O)N1CCC(C(=O)NCCCOC(C)C)CC1 | -1.9% | i | -0.73
COc1cc(S(=O)(=O)NCc2cccnc2)ccc1F | 2.4% | i | /
COc1ccc(-c2cc3nc(C)cc(C)n3n2)c(OC)c1 | 2.2% | i | -0.01
O=C(CCn1c(=O)oc2ccccc21)Nc1ccon1 | 9.8% | i | 0.2
CC(C)(C)n1nnnc1CN1CCN(C(c2ccccc2)c2ccccc2)CC1 | -1.5% | i | /
Cc1cc(C)cc(NC(=O)CN(C)S(=O)(=O)c2cccc3nsnc23)c1 | 2.6% | i | 1.09
CCn1c(C2CC(=O)N(c3ccc(C)c(C)c3)C2)nc2ccccc21 (stereo unspecified) | -3.4% | i | 1.16
CCOC(=O)N1CCC(Nc2c(Nc3cccc(CC)c3)c(=O)c2=O)CC1 | -11.7% | i | -0.07
CC12CN(Cc3ccccc3)CC(C)(CN(Cc3ccccc3)C1)C2=NO | -4.6% | i | 1.71
NC(=O)c1cc[n+](CC2=C(C(=O)O)N3C(=O)[C@@H](NC(=O)C(c4ccccc4)S(=O)(=O)[O-])[C@H]3SC2)cc1 (stereo partly specified) | 0.1% | i | /
CCc1nc(NCCCN2CCOCC2)c2oc3ccccc3c2n1 | 1.2% | i | -0.32
O=C(Nc1ccccn1)C1COc2ccccc2O1 (stereo unspecified) | 2.0% | i | /
O=C(c1cnn2ccccc12)N(Cc1ccco1)C1CCCC1 | 8.0% | i | -0.48
O=C(CSc1nnc(-c2ccccc2)n1C1CCCCC1)N1CCCC1 | 11.5% | i | 1.44
CC(C)n1c(N2CCN(C(=O)Nc3ccc(F)cc3F)CC2)nc2ccccc21 | 2.3% | i | /
CCOC(=O)c1cnc2ccc(C(=O)OC)cc2c1NCCN1CCOCC1 | -0.9% | i | -0.85
Cc1sc2nc(C(C)(C)C)oc(=O)c2c1C | 3.3% | i | /
N#CC(C#N)=c1ccc2c(c1)N1C3=C(CCCC3)CC3CCCCC31N=2 (stereo unspecified) | -5.7% | i | 1.39
COCCn1c(N)c(C(=O)NCC2CCCO2)c2nc3ccccc3nc21 (stereo unspecified) | 0.6% | i | 0.36
N#CCSc1nnc2ccc3ccccc3n12 | -0.8% | i | -0.15
Cc1ccc(-c2nnn(CC(=O)N(CCO)C(C(=O)NC(C)(C)C)c3ccncc3)n2)cc1 (stereo unspecified) | -13.0% | i | -2.44
Cc1cc2c(C(C)C)c(O)c(O)c(C=O)c2c(O)c1-c1c(C)cc2c(C(C)C)c(O)c(O)c(C=O)c2c1O | 3.9% | i | /
Cc1ccc(CNC(=O)C2CCN(S(=O)(=O)c3c(C)noc3C)CC2)cc1 | -2.1% | i | -0.19
COc1ccc(Cl)cc1C(=O)Nc1ccccc1N1CCN(C(=O)C(C)C)CC1 | 9.0% | i | -1.69
c1ccc(-c2n[nH]c(-c3ccccn3)n2)cc1 | 1.7% | i | /
CC1(C(=O)NC2CCCC2)CCC(=O)N1Cc1ccc2c(c1)OCO2 (stereo unspecified) | 4.6% | i | 1.51
CC1=C(C(=O)OCc2ccc3c(c2)OCO3)C(c2ccc(Cl)cc2)NC(=O)N1 (stereo unspecified) | -7.4% | i | 0.77
O=C(Nc1ccc2c(c1)nc1n2CCCCC1)c1cc(S(=O)(=O)N2CCOCC2)ccc1Cl | -0.1% | i | -0.97
O=C(Cn1c(=O)oc2ccccc21)N1CCN(c2ccc(N3CCOCC3)nn2)CC1 | -1.9% | i | -0.42
Cc1ccn(C(CC(=O)c2ccc(Br)cc2)C(=O)O)n1 (stereo unspecified) | 1.3% | i | /
Cc1cccc(OCCC(=O)OCC(=O)N2CCc3ccccc32)c1 | 0.6% | i | 0.43
CC(C)c1ccc2c(c1)C(=O)NC(C)(C)C2 | -0.9% | i | 0.54
COc1ccc(S(=O)(=O)N(CC(=O)NCCCN(C)C)c2ccc(C)cc2)cc1OC | -2.4% | i | -1.63
COc1ccc(-c2cc3nc(C4CCN(C(=O)OC(C)(C)C)CC4)c(C(=O)O)cn3n2)cc1 | -0.1% | i | -1.82
O=C(NC1c2ccccc2-c2ccccc21)N1CCCCC1 | 4.3% | i | 1
Nc1nc(CSc2nc3ccccc3s2)nc(N2CCCCC2)n1 | -5.6% | i | -0.53
C=C(C)COc1ccc2c(C)c(C)c(=O)oc2c1OCC(=C)C | 1.7% | i | 0.0025
c1ccc(CNc2ncnc3c2cnn3-c2ccccc2)cc1 | -3.6% | i | -0.77
COCCN(C(=O)Cc1cccs1)c1nnc(-c2cccnc2)s1 | 9.0% | i | -0.86
O=C(O)CCCC(=O)N1CCN(c2cccc(Cl)c2)CC1 | 1.0% | i | -0.26
O=C(NCC1COc2ccccc2O1)c1c[nH]c2ccc(S(=O)(=O)N3CCOCC3)cc2c1=O (stereo unspecified) | -1.8% | i | 0.96

(list continues)
Compound | Hsc70 | MT1-MMP promoter | WNV protease inh
CCN(CC)CCNC1=NCCn2c1cc1cc(OC)ccc12 | -3.4% | i | /
OCCNc1nc(Nc2ccccc2)nc(Nc2ccccc2)n1 | 0.2% | i | 1.61
COc1ccc2c(c1)CCC(C)N2S(=O)(=O)c1ccc(C2CNC(=O)C2)cc1 (stereo unspecified) | 1.8% | i | -0.41
CCOc1ccc(NC(=O)CCNS(=O)(=O)c2cccs2)cc1 | -1.4% | i | /
CN(C)CCNC(=O)c1c(O)c2c([nH]c1=O)CCCC2 | -2.8% | i | -0.76
COCCOc1nc2c(c(=O)n(C)c(=O)n2C)n1CCc1ccccc1 | 1.2% | i | 0.82
Cc1ccc(NC(=O)CN2CC(C)SC2=NC2CCCCC2)cc1 (stereo unspecified) | -2.9% | + | -0.52
COc1cc2cc(C(c3nnnn3Cc3ccc(F)cc3)N3CCCCCC3)c(=O)[nH]c2cc1OC (stereo unspecified) | -2.8% | i | 0.19
CCOC(=O)Cn1c2ccc(OC)cc2c2nc3ccccc3nc21 | 5.0% | i | 0.43
CN(C)C(=O)N1CCN(C(=O)c2ccccc2Sc2ccccc2C#N)CC1 | 2.5% | i | -0.17
O=c1/c(=C/c2ccc(CNS(=O)(=O)c3ccccc3)o2)sc2n1CCN=2 | 7.9% | i | -0.72
COC(=O)CCCCC(=O)C1C(=O)CC(C)(C)C(C(=O)OC)C1=O (stereo unspecified) | -2.9% | i | 0.04
CCCn1nc(-c2nnc(-c3ccc(C)c(C)c3)o2)c2ccccc2c1=O | 5.1% | i | 0.6
COC(=O)c1cnn2c(C)c(Cc3cccc(F)c3)c(C)nc12 | 1.9% | i | 1.22
Cc1ccc(NC(=O)N2CCCC2C(=O)NCCc2ccccc2)cc1 (stereo unspecified) | -9.8% | i | 0.65
Cc1c(Cl)cccc1NC(=O)CC1SCCNC1=O (stereo unspecified) | 2.0% | i | 2.08
CCCC(=N)C1=C(O)CC(CC(C)SCC)CC1=O (stereo unspecified) | -2.2% | i | -0.24
COc1ccccc1-c1cc(C(=O)Nc2cccnc2)no1 | -4.7% | i | -2.5
Cc1ccc(CSCCNS(C)(=O)=O)cc1 | 2.1% | i | /
CCCOc1ccccc1C1NC(=O)NC(C)=C1C(=O)OCCOCC (stereo unspecified) | -2.9% | i | 0.91
O=C(CCN1CCN(c2ccccc2F)CC1)Nc1ccccc1F | -2.3% | i | 0.33
COCCOC(=O)/C=C1/NC(=O)CS1 | -2.7% | i | 0.11
CC(c1ccco1)N(C(=O)c1cccs1)c1ccccn1 (stereo unspecified) | 7.8% | i | 1.32
O=C(O)c1ccc(-n2nnnc2Oc2ccccc2C(=O)N2CCOCC2)cc1 | -1.0% | i | -0.38
CCOc1ccc(S(=O)(=O)N2CCN(C(=O)c3cccn3C)CC2)cc1 | 4.7% | i | -0.47
Cc1ccc(-c2cc(C(F)(F)F)n3ncc(C(=O)N4CCCc5ccccc54)c3n2)cc1 | 0.1% | i | /
O=C(Nc1ccccc1N1CCCCC1)c1ccccc1F | 7.8% | i | -0.84
Cc1nc(-c2coc3c(CN(C)C)c(O)ccc3c2=O)cs1 | -3.2% | i | /
COc1ccc(OC)c(-n2nnnc2SCC(=O)NCCc2ccccc2)c1 | -0.2% | i | -0.2
Cc1cc(C)n(CC(=O)N2c3ccccc3Sc3ccccc32)n1 | -4.0% | i | 1.95

Two consecutive records from above, quoted:
Compound | Hsc70 | MT1-MMP promoter | WNV protease inh
O=C(CCN1CCN(c2ccccc2F)CC1)Nc1ccccc1F | -2.3% | i | 0.33
COCCOC(=O)/C=C1/NC(=O)CS1 | -2.7% | i | 0.11

Continuation.
Compound | Hsc70 | MT1-MMP promoter | WNV protease inh
N#Cc1c(NC(=O)CSc2n[nH]c(Cc3ccccc3)n2)oc(-c2ccccc2)c1-c1ccccc1 | -2.7% | i | 1.17
Cc1cccc(-c2nnc(SCc3nc4ccccc4[nH]3)n2Cc2ccco2)c1 | -12.0% | i | 0.15
C/C(=N\O)c1ccccc1C(=O)O | -2.9% | i | 0.33
CCSc1nnc(NC(=O)c2ccc(C)cc2)s1 | 2.5% | i | /
COc1ccc(C(=O)Nc2ccc(F)cc2F)cc1OC | 10.3% | i | /
O=C(Nc1ccccc1Cl)c1cc(S(=O)(=O)N2CCCC(C(=O)O)C2)ccc1F (stereo unspecified) | 0.8% | i | -0.22
CC(=O)c1cc2c(cc1NC(=O)c1cc3nc(C(C)C)cc(C(F)(F)F)n3n1)OCO2 | -4.2% | i | 1.12
CCCCc1n[nH]c2c1C(=O)CC(C)(C)C2 | -0.3% | i | 0.33
O=C1OC(N2CCN(C(=O)C3CCCO3)CC2)c2ccccc21 (stereo unspecified) | -7.8% | i | -0.22
Cc1ccc(Cn2nnc3c(=O)n(Cc4cc(C)ccc4C)cnc32)cc1 | -8.8% | i | 1.03

2 entries from above, with each value named.
SMILES: O=C1OC(N2CCN(C(=O)C3CCCO3)CC2)c2ccccc21 (stereo unspecified)
  Hsc70 = -7.8% | MT1-MMP promoter = i | WNV protease inh = -0.22

SMILES: O=C(Nc1ccccc1Cl)c1cc(S(=O)(=O)N2CCCC(C(=O)O)C2)ccc1F (stereo unspecified)
  Hsc70 = 0.8% | MT1-MMP promoter = i | WNV protease inh = -0.22

Next section.
Compound | Hsc70 | MT1-MMP promoter | WNV protease inh
CC1CCN(C(=O)CSc2nnc(Cc3ccccc3)o2)CC1 | -1.9% | i | -0.19
O=C(O)CCc1nc2cccnc2n1Cc1ccccc1 | -0.9% | i | -0.97
CC(C)CN1C(=O)c2ccc(C(=O)NCc3ccc4c(c3)OCO4)cc2C1=O | -0.2% | i | /
COc1cccc(CNC(=O)Nc2cccs2)c1 | -1.3% | i | 1.81
COc1ccccc1NC(=O)CSc1nnc(C)n1CC1CCCO1 (stereo unspecified) | -3.5% | i | /
CCCCC1CCC(C(=O)NCc2ccc3c(c2)OCO3)CC1 (stereo unspecified) | -6.1% | i | /
O=C(CSc1nc2ccccc2o1)NCc1ccco1 | 2.2% | i | -0.56
Cc1cccc(C(=O)NCCN2CCN(c3ccccc3)CC2)c1 | -6.3% | i | 1.27
COC(=O)CCSCc1cn2cc(Cl)ccc2n1 | 4.2% | i | -0.000326
O=C(C1COc2ccccc2O1)N1CCN(c2ccccc2)CC1 (stereo unspecified) | -4.3% | i | -0.9
COc1ccc(C(=O)Nc2cccc(-c3nc4ncccc4o3)c2C)cc1OC | 2.7% | i | -0.25
CCN1C(=O)C(CC(=O)Nc2cc(C)ccc2C)SC1=Nc1ccc(S(N)(=O)=O)cc1 (stereo unspecified) | -0.3% | i | /
COc1oc(-c2ccccc2C)nc1C(F)(F)F | -0.8% | i | /
NC(=O)c1oc2ccccc2c1NC(=O)C1CCCCC1 | 1.2% | i | -1.26
COCCCNc1nc(-c2ccncc2)nc2ccccc12 | -0.2% | i | -0.58
CN(CCO)c1c2c(nc3cc(-c4cccc(F)c4)nn13)CCCC2 | 1.3% | i | /
CCOc1ccc(NC(=O)C2CCN(C(=O)NC3CCCCC3)CC2)cc1 | 0.5% | i | /
OC1CN=C2C=CC=CN2C1 (stereo unspecified) | 0.2% | i | 2.58
CC1=C(C(=O)NC2CCCCC2C)C2(CCC(C)CC2)OC1=O (stereo unspecified) | 3.0% | i | 0.2
CCc1nnc(NC(=O)CSc2nnc(-c3ccc(S(=O)(=O)N(CC)CC)cc3)n2CC)s1 | -0.7% | i | /

Screening data from PubChem BioAssay.
